Assay outcomes as filed in PubChem.
HPGD inh: blocks human HPGD enzyme activity | AID 894 | Potency, µM, for the others: at the top dose activity change, negative = inhibition, hits mostly inhibitors | 150,000 compounds, 4.3% hits | purified HPGD, NADH fluorescence kinetic, PGE2 substrate | P15428; active = well fitted inhibition curve with a large enough effect (not every such curve was filed as active); inconclusive = small, poorly fitted or top-dose-only effect, or another doubt; inactive = no such curve, though single readings can be large or run the other way;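 further: top concentration of the series not given in the record; plate controls included wells without enzyme; inactives centre near -10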
Target sequence (P15428 whole entry, looked up): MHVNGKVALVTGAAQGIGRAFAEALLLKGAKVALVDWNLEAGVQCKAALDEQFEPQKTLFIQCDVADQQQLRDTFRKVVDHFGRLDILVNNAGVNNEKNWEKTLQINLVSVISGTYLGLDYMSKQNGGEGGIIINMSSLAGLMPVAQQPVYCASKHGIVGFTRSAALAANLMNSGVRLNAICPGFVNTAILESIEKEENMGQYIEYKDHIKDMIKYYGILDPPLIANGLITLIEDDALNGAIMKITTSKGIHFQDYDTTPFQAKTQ
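NADH formation kinetics: reaction with 30 uM PGE2 and 1 mM NAD+ (final), 20 nM enzyme, Tris-HCl pH 8 with Tween 20, after 15 min compound preincubation at room temperature. Fluorescence change, last versus first of five reads.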
The depositor's hits bear a star; ? = inconclusive. On the % scale 0 is the no-effect control and ±100 the full control effect; potency means the concentration at half of the fitted maximal effect. Some of the compounds tested; the hit share may differ from the screen's.

SMILES	HPGD inh
Cc1cccc(NC(=O)CCN2C(=O)C3C4CCC(C4)C3C2=O)c1C (stereo not given)	-8%
Cc1ccc(S(=O)(=O)NCCCC(=O)C=[N+]=[N-])cc1	-4%
COc1ccc(CN(CCC(c2ccc(F)cc2)C2CCOC(C)(C)C2)C(=O)c2ccco2)cc1 (stereo not given)	1%
C[C@H]1Cc2c(COc3ccccc3)nc3c(c2CO1)CN(S(=O)(=O)c1ccc(C#N)cc1)CC3	-2%
N#Cc1cccc(NC(=O)CN2NS(=O)(=O)c3ccccc3C2=O)c1	16µM*
Cc1ccc(-n2c(C)cc(C(=O)CSc3n[nH]c(N)n3)c2C)cc1	-9%
O=C(Oc1ccccc1)N1CCC2(CCCN(c3ccccn3)C2)CC1	-25%
Cc1csc(NC(=O)c2cccc(S(=O)(=O)N3CCCCC3)c2)n1	-16%
CCc1ccc(NC(=O)CSc2nnc(SCC(=O)Nc3ccc(CC)cc3)n2N)cc1	-3%
CC(C)n1c(SCC(=O)N2c3ccccc3Sc3ccccc32)nc2c1c(=O)n(C)c(=O)n2C	-14%
C=CCNC(=O)c1cc(Cl)ccc1Cl	20µM*
CCOC(=O)C1(C)C=C(Nc2ccc(OCC)cc2)C(=O)N1c1ccccc1 (stereo not given)	-12%
N#CC(c1ccccc1)c1ccc(C(=O)c2ccc(F)cc2)cc1 (stereo not given)	?
Cc1cc2ccccc2n1CCNC(=O)c1ccc(S(=O)(=O)N2CCOCC2)cc1	-3%
CCOC(=O)C1CCCN(c2c(NCCCN(C)c3ccccc3)c(=O)c2=O)C1 (stereo not given)	-20%
COCc1nnc(NC(=O)CSc2ccccc2)s1	-4%
Cc1ccc(OCCCCN(C)Cc2ccccc2)c(Br)c1	-3%
O=C(NCCCc1ccccc1)Nc1ccccc1	-9%
Cc1ccc2nc(SCC(=O)Nc3ccc4c(c3)CCC4)[nH]c2c1	-15%
Cc1nc2ccccn2c1/C(O)=C1\C(=O)C(=O)N(CCN2CCOCC2)C1c1cccnc1 (stereo not given)	-2%
CCC(NC(=O)Nc1ncccc1C)(C(F)(F)F)C(F)(F)F	-6%
Cc1nc2ccccc2nc1OCC(=O)N1CCN(c2ccccc2)CC1	-20%
CCOC(=O)C1C(C(=O)OCC)C1(c1ccccc1)c1ccccc1 (stereo not given)	-11%
Cc1ccc(C(=O)Nc2ccccc2C(=O)N2CCOCC2)cc1[N+](=O)[O-]	3%
C[C@@H]1NC(=O)[C@H](CCC(=O)O)NC(=O)c2cc([N+](=O)[O-])cc(F)c2NCCC[C@@H](C(N)=O)NC1=O	-10%
CCc1cccc(CC)c1NC(=O)/C(C#N)=C/c1ccccc1C(F)(F)F	-16%
CN(C)c1nc(N)nc(CSc2nnnn2-c2ccc(C(=O)O)cc2)n1	-19%
Cc1occc1C(=O)Nc1cccc([N+](=O)[O-])c1	-6%
O=C(CSc1ccccn1)Nc1nncs1	-3%
Fc1ccc(-c2nc3n(n2)Cc2ccccc2-3)cc1	-10%
O=C(CCCNS(=O)(=O)c1cccs1)N1CCN(c2ccc(F)cc2)CC1	-1%
CCN(CC)CCOC(=O)[C@@H](c1ccccc1)C1CCCCC1	-3%
CC(C)C(=O)Nc1nc2c(ncn2C2CC(O)C(CO)O2)c(=O)[nH]1 (stereo not given)	-7%
CCc1nc2ccccc2n(CCOCCOCCn2c(=O)c(CC)nc3ccccc32)c1=O	-9%
C/C(=N\NC(=S)Nc1cccc(C)c1)c1cccc(N)c1	-9%
COc1ccccc1N=Nc1nc(-c2ccccc2)c(-c2ccccc2)[nH]1	-11%
CN(c1ccccc1)S(=O)(=O)c1ccc(C(=O)NCC2CCCO2)cc1 (stereo not given)	-26%
CCOCCSC1=C(C#N)C(c2cccs2)C(C(C)=O)=C(C)N1 (stereo not given)	-6%
CCOC(=O)c1ccc(-c2ccc(/C=C(\C#N)C(=O)NCc3cccs3)o2)cc1	-5%
O=C(N/N=C/c1cn(-c2ccccc2)nc1-c1cccs1)c1ccc(Cl)cc1	?

Fetched one by one from the entries so far (two):
SMILES	HPGD inh
C[C@H]1Cc2c(COc3ccccc3)nc3c(c2CO1)CN(S(=O)(=O)c1ccc(C#N)cc1)CC3	-2%
CCOC(=O)C1(C)C=C(Nc2ccc(OCC)cc2)C(=O)N1c1ccccc1 (stereo not given)	-12%

The listing continues:
SMILES	HPGD inh
COc1ccccc1CC(=O)Nc1ccc([N+](=O)[O-])cc1OC	-5%
CC(C)=CC/C=C1\CCC(C(=O)O)C(C(=O)O)C1 (stereo not given)	-8%
CCCCn1c(NC(=O)c2ccccc2Cl)c(C#N)c2nc3ccccc3nc21	?
Cc1ccc(N2C(=O)CSC2c2cccs2)cc1 (stereo not given)	0%
COC(=O)c1[nH]nc2c1C(=O)N(Cc1ccccc1)C2=O	10µM*
COC(=O)c1cccc(S(=O)(=O)N2CCCC2)c1	-8%
COc1cc(NC(C)=O)c2ncccc2c1[N+](=O)[O-]	-16%
Cc1ccccc1C(=O)c1c[nH]c(C(N)=O)c1	-17%
CCP(=O)(CC)C(C)(C)CP(=O)(c1ccccc1)c1ccccc1	?
Cn1c(=O)[nH]c(=O)c2c1nc(N1CCCCCC1)n2CC(=O)c1ccccc1	-13%
O=C(COC(=O)C1COc2ccccc2O1)NC(=O)NC1CCCCC1 (stereo not given)	-3%
COC(=O)CSc1ccc(S(=O)(=O)N2CCOCC2)cc1[N+](=O)[O-]	-5%
CC1CCCCC1NC(=O)CN1C(=O)CSc2cc(S(=O)(=O)N3CCCCCC3)ccc21 (stereo not given)	-2%
CCOC(=O)c1[nH]c2ccc(OC)cc2c1NS(=O)(=O)c1ccc(OC)cc1OC	-18%
O=C(COC(=O)c1ccccc1NC(=O)c1ccccc1)c1cccc([N+](=O)[O-])c1	-11%
CCOc1ccc(S(=O)(=O)Nc2cc(Sc3ncn[nH]3)c3oc(=O)sc3c2)cc1	-22%
CCn1c2c(c3cc(OCC(C)C)ccc31)CCCC2=O	?
Fc1ccc2c(c1)C(c1ccncc1)=NNC(c1ccc(Cl)cc1)=N2	-9%
O=C(CN(CCN1CCOCC1)C(=O)Cn1nnc(-c2ccc(F)cc2)n1)NC1CCCCC1	-14%
C=CCN1c2ccccc2[C@]23C[C@@H](C(=O)OC)N(S(=O)(=O)c4ccc5c(c4)OCCN5C)C2=NC(C(=O)OC)=C(C(=O)OC)[C@H]13	3%
CCNCCCNCCCCNCCCNCC	-10%
O=C(/C=C/c1ccco1)NC(=S)Nc1ccc(N2CCCC2)cc1	-9%
CC1CCCCN1S(=O)(=O)c1ccc(S(=O)(=O)N2CCN(c3ccc(F)cc3)CC2)cc1 (stereo not given)	-11%
Cc1sc2ncnc(OCC(=O)N3CCN(S(=O)(=O)c4ccc(Cl)cc4)CC3)c2c1C	-7%
Cc1nc(=O)cc(-c2ccccc2)n1-c1ccccc1	-8%
CCCCCOc1ccc(CSCCNC(=S)Nc2ccccc2)cc1	-19%
CCN(CC)P1(=O)OC(c2cc(OC)c(OC)c(OC)c2)=Nc2c1c(C)nn2-c1ccccc1 (stereo not given)	-14%
C=Cc1ccc(C=C)cc1	-4%
N#CCCCS(=O)(=O)c1nc2ccccc2s1	-21%
CC(Sc1nnnn1C)C(=O)Nc1ccc(Oc2ccccc2)cc1 (stereo not given)	?
C=CCn1c(SCC(=O)N2CCc3ccccc3C2)nc2sc(CC)cc2c1=O	-11%
COCCOc1nc2ccccc2nc1C	0%
O=C(CSc1cccc(C(F)(F)F)c1)NC(=O)NCc1ccco1	-17%
COc1ccc(C(=O)Cn2c(Br)nc3c2c(=O)n(C)c(=O)n3C)cc1	-10%
O=C(O)c1ccc(CNC(=O)c2ccc(Br)o2)cc1	-8%
CCOc1ccccc1C(=O)Nc1ccsc1C(=O)OC	-10%
C=CCn1c(C)cc(C(=O)CSc2nnc(NC(C)C)s2)c1C	-3%
COc1ccc2sc(NC(C)=O)nc2c1	-9%
Cn1c(N)c(C(=O)c2cc(-c3ccccn3)nc3ccccc23)c(=O)[nH]c1=O	-4%
c1ccn2c(SCc3ccc4c(c3)OCO4)nnc2c1	-17%
CCNC(=O)c1nc[nH]c1C(=O)NCC	1%
COc1ccc(/C=N/N2CCN(C3c4ccccc4-c4ccccc43)CC2)cc1O	-10%
O=C(CCN1CCOCC1)c1ccccc1	-23%
Cc1cc(=O)[nH]c(SCc2cc(Cl)ccc2OC(F)F)n1	14µM*
CCC(C)NCCOCCOc1ccc(Br)cc1C (stereo not given)	-7%
Cc1cc(C)n(-c2ccc(C(=O)Oc3ccc4c(c3)OCO4)cc2)n1	-9%
C=CCNC(=O)C12CC3(C)CC(C)(CC(C)(C3)C1)C2	-10%
Oc1ccc(Cl)cc1C1=NNC(c2ccc(Cl)cc2)C1 (stereo not given)	?
Cc1nn(-c2ccccc2)c(Oc2ccc(F)cc2)c1/C=N/n1cnnc1	-11%
CCOC(=O)C(C(=O)NCCCN1CCOCC1)C1CCCCC1 (stereo not given)	-8%
O=c1[nH][nH]c(C(F)(F)F)c1C=NCc1ccc(Cl)cc1	-2%
Cc1onc(-c2ccccc2Cl)c1C(=O)N1CCN(c2nc3ccccc3s2)CC1	-16%
Cc1cc(C)cc(-n2c(C)cc(C=C(C#N)C#N)c2C)c1	-15%
COc1ccc(CC(=O)Nc2c3c(nn2-c2cccc(C)c2C)CS(=O)C3)cc1 (stereo not given)	-10%
O=C1OCC(Cn2c3ccccc3c3ccccc32)O1 (stereo not given)	-7%
CN(/C(=N/S(=O)(=O)c1cccs1)c1ccccc1)c1ccccc1	-7%
CCOC(=O)N1CCN(Cc2cc(=O)oc3ccc(Cl)cc23)CC1	-14%
CN(C1CCCCC1)S(=O)(=O)c1cccc(C(=O)OCC(=O)NC2CCCc3ccccc32)c1 (stereo not given)	-10%
COc1cc2c(=O)n(CCCN3CCOCC3)c(=S)[nH]c2c(OC)c1OC	-30%
COc1cc2c(cc1OC)C(C(=O)Nc1ccc3c(c1)OCCO3)C(c1cccnc1)N(C)C2=O (stereo not given)	-8%

Next part (two carried over from the part before).
SMILES	HPGD inh
COc1cc2c(=O)n(CCCN3CCOCC3)c(=S)[nH]c2c(OC)c1OC	-30%
COc1cc2c(cc1OC)C(C(=O)Nc1ccc3c(c1)OCCO3)C(c1cccnc1)N(C)C2=O (stereo not given)	-8%
COc1ccc(C(c2nnnn2Cc2cccs2)N2CCN(c3ccccc3)CC2)cc1OC (stereo not given)	-24%
COc1nccnc1NS(=O)(=O)c1ccc(NC(=S)NC(=O)c2cccc(F)c2)cc1	-8%
CCn1c(=O)cc(SCC(=O)NCCC2=CCCCC2)c2ccccc21	7.1µM*
COC(=O)c1ccc(COC(=O)c2ccc(-n3cnnn3)cc2)o1	-17%
Cc1ccc(C)c(NC(=O)CN2C(=O)CNC2=O)c1	-7%
CCc1ccc(NC(=O)C(C)OC(=O)c2ccc(N3CCCC3)c([N+](=O)[O-])c2)cc1 (stereo not given)	-15%
CCN1CCN(C(=O)CN(c2ccc(C)cc2)S(C)(=O)=O)CC1	6%
C=CCOc1c(Br)cc(CNn2nnnc2N)cc1OC	0%
COc1cc2c(cc1OC)CN(C(=O)c1cc(=O)c3ccccc3o1)CC2	-18%
Cc1nc2ccc(S(=O)(=O)NCC(=O)N3CCN(c4ccccc4)CC3)cc2s1	-7%
CCN(CC)C(=O)CSc1nc(-c2ccco2)cc(C(F)(F)F)c1C#N	?
O=C(O)c1cccc(S(=O)(=O)N2CCSCC2)c1	-14%
O=C(O)CCCC(=O)Nc1ccn(-c2ccccc2)n1	-10%
CC(C)(C)C1CCc2c(C(=O)NNC(=O)/C=C/C(=O)O)csc2C1 (stereo not given)	-2%
COc1ccccc1-n1c(SC)nc(O)cc1=O	5%
CCCCCCn1c(-c2ccco2)nc2oc3cc(OC)ccc3c(=O)c2c1=O	?
Cn1cnnc1SCC(=O)Nc1cccc(S(=O)(=O)N2CCCCCC2)c1	-7%
CC(C)n1nnnc1SCC(=O)N1CCOCC1	-6%
COC(=O)c1sccc1NC(=O)/C=C/c1ccc(Cl)cc1Cl	-6%
Cc1nn(CC(=O)O)c(C)c1Cl	-4%
O=C(CN1CCOCC1)Nc1nc(-c2ccc3c(c2)CCN3S(=O)(=O)c2ccccc2)cs1	-22%
COc1ccc2c(c1)C1(Nc3ccccc3C(=O)N1c1ccccc1)C(=O)N2 (stereo not given)	-6%
Fc1ccc(-c2nc3ccncc3[nH]2)cc1	-14%
CC1CCC/C(=N\NC(=S)NCc2ccccc2)C1 (stereo not given)	-13%
CCOC(=O)c1c(C)nc2c(C)cccn12	-20%
O=C(Cn1c(=O)n(-c2cccc(Cl)c2)c(=O)n1CC(=O)N1CCCCC1)N1CCCCC1	-6%
COC(=O)C/C(C)=N/Nc1ccc(S(=O)(=O)N2CCCC2)cc1[N+](=O)[O-]	-8%
CCNC(=O)c1c(NC(C)=O)sc2c1CCCC2	-12%
Cc1cc(-c2ccccc2)nc(N2CCC(C(=O)NC(C)C)CC2)n1	?
CCCOc1ccc(C(=O)NC(C)C(=O)O)cc1 (stereo not given)	-9%

Looked up above:
O=C(CN1CCOCC1)Nc1nc(-c2ccc3c(c2)CCN3S(=O)(=O)c2ccccc2)cs1 | HPGD inh: -22%
Fc1ccc(-c2nc3ccncc3[nH]2)cc1 | HPGD inh: -14%
CCOC(=O)c1c(C)nc2c(C)cccn12 | HPGD inh: -20%

A different layout for part of the listing above.
SMILES,HPGD inh
Cc1cc(-c2ccccc2)nc(N2CCC(C(=O)NC(C)C)CC2)n1,?
O=C(Cn1c(=O)n(-c2cccc(Cl)c2)c(=O)n1CC(=O)N1CCCCC1)N1CCCCC1,-6%
CC1CCC/C(=N\NC(=S)NCc2ccccc2)C1 (stereo not given),-13%
O=C(CN1CCOCC1)Nc1nc(-c2ccc3c(c2)CCN3S(=O)(=O)c2ccccc2)cs1,-22%
